High-throughput results: PubChem, several laboratories
WNV NS2B-NS3 inh: WNV NS2B-NS3 proteinase inhibition; P06935; WNV NS2B-NS3 protease, fluorogenic substrate Ex360/Em465; active compounds read low; z-score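 (tested at a level between 10 and 100 µM)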; hit rate 0.18% among 65,000; AID 577;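 active means z-score at -3 or under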;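 further: score is relative to mean and spread of the compound wells of a plate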
Target sequence (P06935 1371-1501 limits assumed): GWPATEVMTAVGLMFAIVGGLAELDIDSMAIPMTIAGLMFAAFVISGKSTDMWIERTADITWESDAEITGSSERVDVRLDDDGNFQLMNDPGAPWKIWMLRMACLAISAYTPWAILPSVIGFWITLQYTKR
Target sequence (P06935 1502-1679 limits assumed): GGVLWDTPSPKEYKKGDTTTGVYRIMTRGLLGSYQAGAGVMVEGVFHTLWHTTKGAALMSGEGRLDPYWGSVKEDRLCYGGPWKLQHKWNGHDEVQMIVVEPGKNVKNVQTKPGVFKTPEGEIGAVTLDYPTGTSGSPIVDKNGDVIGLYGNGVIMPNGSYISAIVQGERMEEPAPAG
MT1-MMP promoter: inhibitors of MT1-MMP promoter transcription, cell-based, luciferase reporter, luminescence (AID 618); MT1-MMP promoter luciferase reporter cells, luminescence; calls from a first round at 10 µM; hits with a dose series show EC50 in µM; hit rate 0.62% among 87,000;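 active means over half of the reporter light lost at 10 µM or EC50 under 50 µM; inactive means the rest and hits that failed the dose series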;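 further: actives suppress MT1-MMP promoter-driven transcription so potencies describe inhibitors; HT1080 fibrosarcoma cells; overnight exposure; toxic or luciferase-blocking compounds were not removed from the actives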
Hsc70 ATP site: Hsc70 inhibitors, probe displacement, primary screen, biochemical, fluorescence polarization (AID 568); Hsc70 fluorescence polarization, probe displacement; higher % means a stronger effect; strong numbers were not always called active; one-dose displacement, % at 20 µM; IC50 in µM for titrated hits; 83,000 tested, under 10 active;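 active means displacement above 50% without optical interference and an IC50 on retest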;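 further: ATPase domain with a fluorescein-tagged ATP probe; 0% = vehicle and 100% = excess ADP; read after one hour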
* marks the source's active call; other numbers are inactive results; i = inactive; . = not tested or not shown; + = active, no number.

SMILES	WNV NS2B-NS3 inh	MT1-MMP promoter	Hsc70 ATP site
O=C(NC1=NCCS1)c1nc(-c2ccccc2)n(-c2ccccc2)n1	5.4e-05	i	-2.7%
O=S(=O)(c1cccc(-c2cn3cc(Cl)ccc3n2)c1)N1CCOCC1	2.1	i	-0.1%
CCOC(=O)c1cnn(-c2ncnc3c2cnn3Cc2ccccc2)c1N	-0.9	i	4.2%
CCOc1cc(C(C#N)N2CCOCC2)ccc1OC (centres undefined)	1.2	i	0.6%
O=C(CSc1nnc(-c2ccco2)n1CC1CCCO1)NC1CCCC1 (centres undefined)	0.74	i	2.9%
O/N=C/CCn1c(=S)sc2ccccc21	0.17	i	0.9%
Cc1c(N=C2Nc3cccc4cccc2c34)c(=O)n(-c2ccccc2)n1C	1.4	i	-8.1%
c1ccc(-n2cnnc2SCc2cn3ccsc3n2)cc1	1.1	i	-1.2%
COc1ccc2c(c1)CCCN2C(N)=O	0.48	i	0.5%
COc1ccc(CCC(=O)NC2=NCCS2)cc1OC	1.8	i	-4.6%
COc1ccccc1S(=O)(=O)Cc1ccc(C(=O)NCCN2CCCCCC2)o1	0.07	i	11%
CCCc1cc(-c2n[nH]c(C)c2-c2ccc(C(=O)OCC)o2)c(O)cc1O	-0.93	i	6.7%
Cn1c(=O)c2c(nc(CN3CCN(C(=O)c4ccco4)CC3)n2Cc2cccc(Cl)c2)n(C)c1=O	-0.48	i	2.4%
CN(C)Cc1c(C#N)c2ccccc2n1C	1.6	i	-4.3%
CS(=O)(=O)N1CCC(C(=O)NCCC2=CCCCC2)CC1	-0.01	i	-5.1%
O=C(NCc1ccc(F)cc1)c1cc(S(=O)(=O)N2CCOCC2)ccc1F	0.51	i	1.9%
CCOc1ccccc1-c1nc(-c2ccc(NC(=O)Cc3ccc(OC)cc3)cc2)no1	0.37	i	2.7%
O=C(NCc1ccco1)c1ccccc1Nc1ccc(F)cc1	0.73	i	-1.3%
CN(C)c1ccc(/C=c2\sc3n(c2=O)CCCN=3)cc1	-0.09	+	-112%
CCOc1ccc(NC(=O)CSc2nnc(CCNC(=O)c3ccc(OC)cc3)n2C)cc1	.	i	-3.2%
Cc1c(C=O)c2ccccn2c1C(=O)c1ccncc1	.	i	-3.4%
CC(=O)Nc1c(OC(C)=O)ccc2c(C)cc(=O)oc12	0.8	i	-8.7%
CC(Sc1nncn1C)C(=O)Nc1nnc(C(C)C)s1 (centres undefined)	0.3	i	1.0%
CCCCN(C(=O)CNC(=O)c1ccco1)C(C(=O)NC1CCCC1)c1ccc(OC)cc1 (centres undefined)	.	i	2.3%
O=c1oc2ccccc2c(O)c1/C=N/c1ncccn1	0.67	i	-3.7%
CN(c1ccccc1)c1nc2ccsc2c(=O)s1	-0.52	i	2.1%
CCOC(=O)C1C(c2ccccc2)C(C(=O)OCC)C1c1ccccc1 (centres undefined)	.	i	3.9%
CC(C)(C)c1cc(C(=O)Nc2ccccc2)ccn1	.	i	1.5%
CN(C(=O)C1CCOC1)c1nnc(-c2cccnc2)s1 (centres undefined)	1.9	i	1.2%
COCCNC(=O)c1ccccc1-c1nc(-c2ccccc2Cl)no1	-0.33	i	5.0%
Cc1ccccc1CSc1nnc(C)c(=O)[nH]1	0.21	i	3.1%
O=C(NCc1ccccc1)c1cc(=O)nc2sc(-c3ccccc3)nn12	0.09	i	3.0%
CSc1n[nH]c(NCc2cccs2)n1	0.48	i	-2.3%
CC(=O)c1ccc(N2CCN(C(=O)c3ccco3)CC2)c(F)c1	-1.7	i	-0.5%
CCN(CC)c1ccc(C=Nc2ccc(N(C)C)cc2)c(O)c1	.	i	-104%
CCCCc1cc2c(c(NC(C)=O)n1)c(=O)oc1ccccc12	1.1	i	3.1%
NC(=O)CCn1nc(-c2ccc(Cl)cc2)c2ccccc2c1=O	1.2	i	5.4%
CC(=O)OCC(OC(C)=O)C(OC(C)=O)C(OC(C)=O)C(=O)Nc1ccccc1C (centres undefined)	0.58	i	-0.8%
COc1ccc(-n2c(Cc3cccn3C)nnc2SCC(=O)Nc2cc(C)cc(C)c2)cc1	-1.9	i	3.9%
Cc1cc2cc(CN(Cc3ccc4c(c3)OCO4)Cc3nnnn3C3CCCC3)c(=O)[nH]c2cc1C	-0.88	i	-1.8%
COc1cc(/C=N/NC(=O)c2nc(C)cc(C)n2)ccc1O	.	i	4.4%
O=C(CSc1nnc(Cc2ccccc2)n1C1CCCCC1)N1CCOCC1	-0.69	i	-0.7%
Cc1nnc(SC(C)C(=O)NCC2CCCO2)n1-c1ccccc1 (centres undefined)	-0.18	i	-1.5%
CCN(CC)CC(C)(C)NS(=O)(=O)c1ccc(Cl)cc1	-0.65	i	0.4%
COCC(=O)Nc1ccc(Nc2ccccc2)cc1	1.1	i	4.5%
COC(=O)c1ccc(CSc2nnc(NC(C)C)s2)cc1	.	i	6.0%
CCOc1cccc2sc(NC(=O)c3ccc(Br)s3)nc12	-1	i	3.8%
Cc1cc(C)n(-c2ccc(C(=O)Nc3sccc3C(N)=O)cc2)n1	-1.4	i	-16%

Reformatted: entries from further up.
Results follow in this order: WNV NS2B-NS3 inh	MT1-MMP promoter	Hsc70 ATP site
- O=C(CSc1nnc(Cc2ccccc2)n1C1CCCCC1)N1CCOCC1
 : -0.69	i	-0.7%
- Cc1nnc(SC(C)C(=O)NCC2CCCO2)n1-c1ccccc1 (centres undefined)
 : -0.18	i	-1.5%
- CCN(CC)CC(C)(C)NS(=O)(=O)c1ccc(Cl)cc1
 : -0.65	i	0.4%
- COCC(=O)Nc1ccc(Nc2ccccc2)cc1
 : 1.1	i	4.5%
- COC(=O)c1ccc(CSc2nnc(NC(C)C)s2)cc1
 : .	i	6.0%
- CCOc1cccc2sc(NC(=O)c3ccc(Br)s3)nc12
 : -1	i	3.8%
- Cc1cc(C)n(-c2ccc(C(=O)Nc3sccc3C(N)=O)cc2)n1
 : -1.4	i	-16%

(listing goes on)
SMILES	WNV NS2B-NS3 inh	MT1-MMP promoter	Hsc70 ATP site
Cc1cc(C=O)c(C)n1-c1cc(C(F)(F)F)ccc1N1CCOCC1	.	i	-1.3%
Cc1ccc(-c2n[nH]c(=O)c3ccccc23)cc1N	-0.32	i	-4.0%
COc1cc(C(=O)OC(C)C(=O)Nc2ccc3c(c2)OCO3)ccc1OCc1c(C)noc1C (centres undefined)	.	i	-0.5%
CCN(CC)S(=O)(=O)c1ccc(Nc2ccc(-c3ccc4c(c3)OCCO4)nn2)cc1	.	i	1.2%
O=C(O)Cc1ccc(C(=O)c2ccc(Cl)cc2)s1	.	i	-1.3%
O=C(CSc1nnc2ccccn12)NCCN1C(=O)CSC1=O	0.46	i	-3.1%
Cc1c(C)n(C(=O)CN2CCC(C(N)=O)CC2)c2ccccc12	-0.46	i	0.3%
O=C(CCN1C(=O)C2CC=C(Cl)CC2C1=O)N1CCCCC1 (centres undefined)	1.3	i	51%
CCOc1ccc(OCc2ccc(C(=O)NCc3ccncc3)o2)cc1	-0.51	i	1.8%
O=C1c2ccccc2NC(c2ccc3c(c2)OCCO3)N1c1ccc2c(c1)OCCO2 (centres undefined)	1.5	i	-0.7%
CCCOc1cccc(OCCSc2nc(C)cc(=O)[nH]2)c1	-0.2	i	-0.5%
CC(C)NCC(O)COCc1ccc(Cl)cc1 (centres undefined)	0.68	i	-5.6%
Cc1cc(C)nc(N2CCN(CC(=O)NCc3ccccc3)CC2)n1	.	i	1.7%
CCN1CCN(C(c2ccccc2F)c2nnnn2Cc2ccc3c(c2)OCO3)CC1 (centres undefined)	0.84	i	-1.4%
Nn1c(SCC(=O)Nc2ccccc2)nnc1-c1cccnc1	-1.5	i	1.2%
CCCN1CCN(C(c2cc3cc4c(cc3[nH]c2=O)OCO4)c2nnnn2C(C)(C)C)CC1 (centres undefined)	-0.88	i	-5.9%
OCC1(c2cc(C(F)(F)F)n[nH]2)CCCCC1	-0.57	i	-3.6%
O=c1cc(N2CCc3ccccc3C2)[nH]c(=O)n1-c1ccc(Br)cc1	-0.06	i	-5.6%
O=C(C1CCCN(c2nnc(-n3cccc3)s2)C1)N1CCN(c2ccccc2)CC1 (centres undefined)	-0.51	i	3.9%
c1ccc(-c2cccc(-c3ccccn3)n2)nc1	3.1	i	-0.8%
CCOC(=O)C1=C(C)SC2=NS(=O)(=O)CCN21	0.91	i	1.0%
Cc1ccccc1-n1nc(C)c2cc(C(=O)N3CCN(S(=O)(=O)c4ccc(Cl)cc4)CC3)sc21	.	i	-7.3%
O=C(NCCn1cc(SCC(=O)N2CCOCC2)c2ccccc21)c1ccccc1	-1	i	-0.3%
COc1ccc(C(C#N)Nc2ccc(C)cc2)cc1 (centres undefined)	.	i	2.5%
CN1CCN(P(=O)(c2ccccc2)c2nc3ccccc3s2)CC1 (centres undefined)	-1.7	i	-3.7%
COc1cccc(OC)c1C(=O)NC(C)c1ccccc1 (centres undefined)	.	i	-3.6%
Cc1nnsc1-c1nc2ccccc2[nH]1	0.86	i	-5.3%
O=C(NCCc1ccc(Cl)cc1)c1nnc(Cc2ccc(Cl)cc2)o1	-1.1	i	1.2%
CCN(CC)c1ccc2c(c1)C(=O)N(C)C2=O	-0.11	i	6.6%
COc1ccc(Cc2nnc(NC(=O)C3CCCO3)s2)cc1OC (centres undefined)	.	i	5.4%
CCSc1ncc(Cl)c(C(=O)Nc2ccc(S(=O)(=O)Nc3onc(C)c3C)cc2)n1	-0.2	i	4.2%
O=C(Oc1cc(=O)oc2ccccc12)c1ccco1	-0.41	i	2.6%
COC(=O)NCCOc1cc(C)ccc1C	-0.16	i	-2.7%
CCn1c(CNc2ccc(C)cc2)nnc1SCC(N)=O	.	i	12%
Cc1cc(=O)[nH]c(SCC(=O)O)c1C#N	.	i	4.6%
Cc1cccc(-c2nnc(-c3ccc(N)cc3)o2)c1	0.08	i	2.8%
CC(C)n1c(NCCc2ccccc2)nc2c1c(=O)n(C)c(=O)n2C	.	i	-0.8%
CCOc1ccccc1-n1c(SCC(=O)N(C(C)C)C(C)C)nnc1-c1cccnc1	-0.36	i	-8.9%
CCN(CC)C(=O)CSc1nc2nc(C)cc(C)c2c(=O)[nH]1	.	i	9.5%
Cc1n[nH]c(C)c1-c1nc2ccccc2[nH]1	-0.59	i	5.0%
CC(C)=CC1C(C(=O)Nc2ccc(Br)cn2)C1(C)C (centres undefined)	-0.38	i	-4.6%
C=C(C)COc1ccc2c(C)c(CC(=O)OC)c(=O)oc2c1C	1.2	i	-0.6%
O=C(CSc1nnc(-c2ccncc2)n1-c1ccc(F)cc1)NC(=O)NCc1ccco1	0.58	i	3.0%
Cc1c(CCO)c(=O)n(-c2ccccc2)n1S(=O)(=O)c1c(Cl)cc(Cl)cc1Cl	.	i	2.3%
CCOc1ccccc1NC(=O)CCC(=O)O	0.23	i	0.9%
CC(C)N(Cc1ccccc1)S(=O)(=O)N(C)C	0.06	i	5.9%
CCC(C)(C)n1nnnc1CN1CCSCC1	-0.18	i	3.9%
Cc1cc(Nc2ccc(C)c(F)c2)n2ncnc2n1	-0.75	i	-5.2%
CN(CCCNC(=O)Cn1cc2c(n1)CCCC2)C1CCCCC1	-1.2	i	2.2%
O=C(CSc1nnc(Cc2ccccc2)n1-c1ccccc1)N1CCOCC1	-0.4	i	-7.5%
Cc1cc(/C=N/n2cnnc2)c(C)n1-c1cccc(Cl)c1	-0.63	i	0.2%
CC1(C)CC(=O)CC(=NCC(=O)O)C1	-0.77	i	-1.0%
Cc1cc(C(=O)N2CCCc3ccccc32)no1	0.27	i	2.6%
COc1ccccc1N1CCN(C(=O)CSc2ncccc2-c2nc3ccccc3[nH]2)CC1	-0.54	i	-7.4%
COc1ccc(Cn2nnnc2C(c2ccc(N(C)C)cc2)N2CCC(C)CC2)cc1 (centres undefined)	0.87	i	1.8%
CC(C)c1cc(=O)oc2c3c4c(cc12)CCCN4CCC3	0.94	i	77%
CC(NC(=O)c1cccc(C(F)(F)F)c1)C1CCCO1 (centres undefined)	-0.41	i	5.0%
NC(C(=O)O)C1CC(Cl)=NO1 (centres undefined)	.	i	3.0%
CC(C)Oc1ccc(C2CC(=O)N(c3ccc(N(C)C)cc3)C2=O)cc1 (centres undefined)	.	i	1.3%
O=C(O)c1[nH]c2ccccc2c1CC(=O)N1CCOCC1	0.61	i	1.0%

Continued.
SMILES	WNV NS2B-NS3 inh	MT1-MMP promoter	Hsc70 ATP site
CC(C)NC(=O)CN1CCN(c2ncccn2)CC1	0.98	i	-0.9%
CCCCn1c(SCC(=O)Nc2cc(C)on2)nc2ccccc2c1=O	-0.32	i	-2.8%
OCCOCCn1c(-c2ccccc2)nc(=S)c2c1CCCC2	-0.37	i	-4.2%
N#Cc1ccccc1OCC(=O)Nc1c(C(=O)C2CC2)oc2ccccc12	0.3	i	-1.9%
COc1ccc(N2C(=O)CC(NC34CC5CC(CC(C5)C3)C4)C2=O)c(OC)c1 (centres undefined)	0.47	i	-0.9%
Cc1cc(Cl)c(S(=O)(=O)N2CCN(c3ccc(F)cc3)CC2)cc1OCC(=O)NC1CCCCC1	.	i	4.0%
C=CCn1c(-c2ccc(OC)c(OC)c2)cs/c1=N\c1ccccn1	0.69	i	-0.3%
O=C1CCC(C(=O)NCc2cccnc2)N1 (centres undefined)	.	i	-2.6%
CCOC(=O)C1CCN(C2CC(=O)N(c3cccc(Cl)c3)C2=O)CC1 (centres undefined)	-0.32	i	-5.1%
N#Cc1cnn(-c2ccccc2)c1N	0.55	i	-2.1%
COCCN(C(=O)COc1ccccc1)c1nnc(-c2cccnc2)s1	0.77	i	-5.8%

Compounds as they come; about 0.87% have a hit in one of these screens.
